PINK1 expr mod – PINK1 expression modulation | AID 624263 | Potency, µM (highest dose often 76.6 µM), inactives show at the top dose activation (PINK1 increase), actives largely listed as activators | PINK1 immunofluorescence, high-content cytometry, 24 h | 410,000 compounds, 0.2% hits; active = well fitted activation curve with a large enough effect; inconclusive = small, poorly fitted or top-dose-only effect; inactive = flat fitted curve, though single readings scatter; cell line not stated here;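 note: potency is the fitted concentration of half-maximal effect; % of control where 0% means no effect; nearly all actives have a fitted effect of over 65% in size; a mitochondrial uncoupler was the plate control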
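Fluorescence from anti-PINK1 antibody, together with nuclear and cell stains, was scanned on a laser-scanning cytometer. Before staining, stable-line cells were incubated 24 hours with compounds at 5 concentrations; primary antibody 12 h at 10 degrees C.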
TRPML1 ag – human mucolipin-1 channel agonism | AID 624414 | TRPML1-expressing cells, Ca2+ dye fluorescence, FDSS; host cell line not named in the record; reference of the full effect not given here | Q9GZU1 | 410,000 compounds, 0.12% hits | activation, % (concentration not given with the values); in the data active = activation above about 50%; inconclusive = about 30% to 50%; inactive = below about 30%; note: 0% is about no effect; the text of the record puts the active cut at 80%
Target sequence (Q9GZU1 whole entry, looked up): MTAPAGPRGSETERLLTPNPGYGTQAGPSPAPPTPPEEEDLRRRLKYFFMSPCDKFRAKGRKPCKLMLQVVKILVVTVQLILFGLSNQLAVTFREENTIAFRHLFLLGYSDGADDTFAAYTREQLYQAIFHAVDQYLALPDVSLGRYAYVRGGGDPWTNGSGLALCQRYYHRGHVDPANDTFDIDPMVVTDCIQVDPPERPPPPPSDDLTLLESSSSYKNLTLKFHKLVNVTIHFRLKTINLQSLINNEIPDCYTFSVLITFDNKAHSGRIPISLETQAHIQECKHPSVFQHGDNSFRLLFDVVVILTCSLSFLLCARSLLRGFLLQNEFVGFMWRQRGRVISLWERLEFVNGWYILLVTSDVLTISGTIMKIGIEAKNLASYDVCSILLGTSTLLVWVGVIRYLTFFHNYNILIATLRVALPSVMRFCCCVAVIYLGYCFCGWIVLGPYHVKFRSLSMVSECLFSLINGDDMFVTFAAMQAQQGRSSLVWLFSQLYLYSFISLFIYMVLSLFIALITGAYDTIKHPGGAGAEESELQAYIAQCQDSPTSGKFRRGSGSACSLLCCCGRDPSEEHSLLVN
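Calcium fluorescence on an FDSS kinetic reader gave the read-out. Tet-induced TRPML1-DL cells were plated overnight, dye-loaded (Ca8 with quencher, 45-90 min, room temperature, dark), then read 110 s after compound addition, and again 110 s after 4uM final 54-4 (EC80).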
Menin MLL FP FL – menin-MLL binding inhibition, fluorescein peptide; 290,000 tested, under 10 active; FP activity change, % at 61.4 µM; Fluorescence polarization, fluorescein-MLL peptide displacement from menin; inconclusive = falling polarisation curve, or a change in total fluorescence; inactive = total fluorescence flat and polarisation flat or rising; no compound was filed as active; the % refers to the polarisation; negative = inhibition;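 note: % of control where 0% means no effect; inhibitors lower the polarisation; unlabelled MLL peptide was the positive control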
TRPV1 potentiator – human TRPV1 potentiation | potentiation, % at 8.33 µM | AID 540277 | TRPV1-expressing cells, Fluo-8 calcium influx, capsaicin EC20 potentiation; host cell line not named in the record; control for the full effect not named in the record | Q8NER1 | 320,000 compounds, 0.02% hits; active means potentiation above 80%; inconclusive means 30% to 80%; inactive means below 30%; note: 0% is about no effect
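TRPV1-expressing cells were cultured overnight at 35.5C and loaded with Fluo-8 calcium dye for 40 to 90 min at room temperature. After a 10 s baseline, compound was added and calcium influx was read kinetically for 3 min (ex 480/em 520 nm).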
TRPML1 inh – human mucolipin-1 channel inhibition. Q9GZU1. TRPML1-inducible cells, Ca2+ dye fluorescence, FDSS; hits give low values; inhibition of EC80 agonist-evoked calcium signal. activity change, negative = inhibition, % (concentration not given with the values). 390,000 compounds, 0.02% hits. AID 624415; in the data active means activity change below about -50%; inconclusive means about -30% to -50%; inactive means above about -30%;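 note: stimulus is agonist 54-4 at its EC80 concentration; % is set by controls: 0 for no effect and ±100 for the full control effect; the text of the record puts the active cut at -80%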
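TRPML1-DL cells, Tet-induced overnight (~16 h, 37 °C) at 1,500 cells/well, were loaded with Ca8 no-wash dye plus quencher for 45-90 min at room temperature. Compounds were pinned during FDSS kinetic reading; agonist 54-4 at EC80 (4 uM final) then added.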
ClpP mod – qHTS Assay for Activators of ClpP; purified B. subtilis ClpP, FRET peptide cleavage, 20 min; Potency, µM (highest dose often 57.5 µM), without a hit: at the highest dose activity change, negative = active; 340,000 compounds, 1.9% hits; active = well fitted falling curve with a large enough effect; inconclusive = small, poorly fitted or top-dose-only effect; inactive = no such curve, though single readings can be large or run the other way; note: potency is the fitted concentration of half-maximal effect; the source files actives as falling curves though it sought activators and does not explain the sign; nearly all actives have a fitted effect of over 65% in size; many hits overshoot -100%
Target sequence (P80244 whole entry, looked up): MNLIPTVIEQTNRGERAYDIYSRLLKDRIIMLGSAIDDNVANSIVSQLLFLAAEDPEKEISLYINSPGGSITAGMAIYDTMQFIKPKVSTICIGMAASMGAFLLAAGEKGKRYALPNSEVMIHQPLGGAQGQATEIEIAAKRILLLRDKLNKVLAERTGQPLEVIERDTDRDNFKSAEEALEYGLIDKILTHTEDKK
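FRET quenching reversal measured ClpP activation: 10 microg/mL B. subtilis ClpP at pH 8 with the FRET-FV decapeptide, read at 430 nm after 320 nm excitation. The 20-min minus 0-min signal was scaled between DMSO/no-enzyme wells and ADEP (5.8 microM final).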
Sfp inh – blocks B. subtilis Sfp PPTase activity; Q9F4F7; Biochemical Sfp PPTase activity, qHTS; Potency, µM, without a hit: max response, negative = inhibition, hits mostly inhibitors; 310,000 compounds, 3.5% hits; AID 1490; active = well fitted inhibition curve with a large enough effect; inconclusive = small, poorly fitted or top-dose-only effect, or another doubt; inactive = no such curve, though single readings can be large or run the other way;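 note: the enzyme is Sfp with the accession as filed and its product quenches rhodamine fluorescence; potency is the fitted concentration of half-maximal effect; 0% = enzyme reaction without inhibitor and -100% = no enzyme wells; top concentration of the series not given in the record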
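Sfp 15 nM + cpd, 15 min RT; start w/ rhodamine-CoA 5 uM, BHQ-2-YbbR 12.5 uM (final); 50 mM Hepes pH 7.6, 10 mM MgCl2, 0.01% NP-40, 0.01% BSA; read 525/598 nm at 0 and 30 min.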
* marks the source's active call; other numbers are inactive results; ? = inconclusive; . = no result given; & = joins results of further samples; [ ] = dose if it differs, or a comment.

A first look, two compounds:
molecule	PINK1 expr mod	TRPML1 ag	Menin MLL FP FL	TRPV1 potentiator	TRPML1 inh	ClpP mod	Sfp inh
CNC(=O)C(=O)NCC1OCCCN1S(=O)(=O)c1ccc2c(c1)OCCO2 (configuration not stated)	0.4%	0.6	.	4	-1	-0.5%	6%
Cc1cc(C(=O)CSc2nnc(-c3ccco3)o2)c(C)n1Cc1ccco1	7.4%	0.4	5.0	16	66	-3.5%	-9%

This part in full (from the top)
molecule	PINK1 expr mod	TRPML1 ag	Menin MLL FP FL	TRPV1 potentiator	TRPML1 inh	ClpP mod	Sfp inh
CNC(=O)C(=O)NCC1OCCCN1S(=O)(=O)c1ccc2c(c1)OCCO2 (configuration not stated)	0.4%	0.6	.	4	-1	-0.5%	6%
Cc1cc(C(=O)CSc2nnc(-c3ccco3)o2)c(C)n1Cc1ccco1	7.4%	0.4	5.0	16	66	-3.5%	-9%
CC1=NN(c2ccc(F)cc2)C(=O)C1C(c1cccc(O)c1)c1c(C)[nH]n(-c2ccc(F)cc2)c1=O (configuration not stated)	1.6%	-0.4	-0.6	14	4	-7.4%	-25%
COCCNC(=O)c1cnn2c(C(F)(F)F)cc(-c3ccc4c(c3)OCO4)nc12	3.1%[38.3 µM]	-0.6	1.5	-13	1	0.5%	7%
COc1cc(OC)nc(NC(=O)CCl)n1	-3.6%	0.3	-0.7	?	7	4.5%	?
O=C(O)CCc1cccnc1	0.0%	-0.4&-0.6	0.9	7	3	0.0%&1.1%	3%
CCN(CC)CCC/C(=N\O)C(O)(c1ccccc1)c1ccccc1	-0.8%	0.8	0.3	4	-17	-0.5%	10%
COc1ccc(CNC(=O)C2CCC(CNS(=O)(=O)c3cccc4cccnc34)CC2)cc1 (configuration not stated)	-0.9%	-0.2	.	-8	6	0.4%	-4%
CCCCOc1ccc(C(=O)NNC(=O)c2cnccn2)cc1OC	-1.3%	-0.1	.	.	-2	-2.8%	.
c1ccc2c(-c3cc(NCc4ccncc4)n4nccc4n3)cccc2c1	1.5%	-0.5	.	.	.	-16%	.
CCOC(=O)c1c(C)[nH]c(C)c1S(=O)(=O)N(C)CC(=O)Nc1ccccc1F	-0.6%	0.7	-1.5	0	-6	-0.4%	8%
Cc1ccc(-n2nnc3c(SCC(=O)NCC4CCCO4)ncnc32)cc1 (configuration not stated)	-1.6%	-0.9	2.8	-27	-11	-0.6%	11%
CCCCc1ccc(NC(=S)N2CCC(O)CC2)cc1	1.0%	0.5	-5.7	14	0	.	5%
CC(C(=O)N1CCc2ccccc21)N1CCN(S(=O)(=O)c2cccs2)CC1 (configuration not stated)	0.0%	1.0	.	-15	-15	-3.2%	.
COC(=O)c1ccc(NC(=O)CSC2=NCCN2)cc1	14%	0.1	-1.5	-4	-14	-2.6%	6%
CCOC(=O)c1nc(-c2ccccc2)oc1N1CCOCC1	0.2%	-0.8	1.1	4	-8	.	11%
CCn1c(CN2CCC(C)CC2)nc2cc(NC(=O)c3ccccc3[N+](=O)[O-])ccc21	0.6%	-0.4	.	.	-5	-0.3%	.
COCCn1c(=O)c(-c2ccc(F)cc2)nc2cnc(Nc3cccc(OC)c3)nc21	?	.	?	.	.	.	9%
CN(C)C=Nc1ncc2c3ccccc3n(CCN(C)C)c2c1C#N	-3.0%	-0.3	0.4	-23	0	?	5%
Cc1cc(OCC(=O)Nc2ccc(C(=O)OC3CCCCC3)cc2)ccc1Cl	0.8%	1.3	.	.	11	-0.1%	.
CCc1cc2ccc(OC)cc2nc1SCC(=O)NNC(C)=O	-0.7%	-1.2	5.0	20	-4	-1.2%	-7%
Cc1[nH]c2ccccc2c1/C=C/c1nc2ccccc2c(=O)n1-c1cccc([N+](=O)[O-])c1	5.2%	0.8	9.7	1	-5	-13%	3%
CCn1cc(/C=C(\NC(=O)c2ccc(OC)c(OC)c2)C(=O)NCCCn2ccnc2)c2ccccc21	-4.9%	0.3	.	.	3	-3.5%	.
CCOC(=O)CSc1nnc(Cc2cc(=O)[nH]c(=O)[nH]2)n1-c1ccc(Cl)cc1	0.5%	0.5	?	.	22	0.7%	-3%
CCCCn1c(N)c(N(CCOC)C(=O)C2CCCN(C(=O)c3ccc(Cl)cc3)C2)c(=O)[nH]c1=O (configuration not stated)	1.1%	-0.1	.	-3	2	.	.
O=C(CN(Cc1ccccc1Cl)C(=O)CNS(=O)(=O)c1ccccc1)NCC1CCCO1 (configuration not stated)	2.6%	-0.5	4.0	11	-2	-0.8%	-3%
COc1ccccc1NC(=O)c1sc2nc(N3CCOCC3)c3c(c2c1N)CC(C)(C)OC3	27%	-0.1	.	.	6	-16%	.
CC1Sc2ccc(C(=O)Nc3ccccc3OC(F)F)cc2NC1=O (configuration not stated)	1.4%	0.1	.	-8	-17	-2.0%	.
CCCN1C=CC(=CC=C(C#N)C#N)C=C1	?	21	?	-10	6	.	0%
Cc1cc(C)c2c(=O)cc(CSCC(=O)Nc3nnc(C)s3)[nH]c2c1	5.7%	2.8	.	.	14	-3.3%	.
Cc1c(CN2CCC(CO)(Cc3cccc(C(F)(F)F)c3)CC2)c2ccccc2n1C	-6.6%	2.8	0.4	4	0	1.3%	?
CCOC(=O)C1CCCN(c2cc(C)nc3cc(-c4ccc(Cl)cc4)nn23)C1 (configuration not stated)	10.0%	-0.7	6.1	4	12	?	-26%
COc1ccccc1CC(=O)NN1C(=O)NC2(CCC(C)CC2)C1=O (configuration not stated)	1.6%	-0.4	.	-7	12	0.4%	.
C=CC[C@@H](CC(=O)NCCO)C(=O)NCCOC(=O)[C@@H](CC=C)Cc1ccc(F)cc1	0.7%	-0.1	.	.	9	-1.1%	.
CCOC(=O)c1c(NC(=O)COC(=O)c2cnccn2)sc(C)c1C	-1.7%	2.8	.	.	27	-0.4%	.
O=C(COc1ccccc1Cl)NC(=S)Nc1ccc(CN2CCOCC2)cc1	9.7%	-0.3	-1.9	29	10	3.6%	-6%
CC(=C/C(=O)O)/C(=C\c1ccc(Br)o1)C(=O)O	-0.1%	0.3	0.5	-1	3	.	20%
CCCN1CCc2c(sc(NC(=O)CCS(=O)(=O)c3ccccc3)c2C(N)=O)C1	-0.7%	0.4	0.1	13	0	-5.7%	0%
COC(=O)c1c(NC(=O)/C=C/C(=O)O)sc(C)c1-c1ccc(C(C)C)cc1	-3.3%	-0.6	-2.7	-11	54	-1.8%	12%
Cc1ccc(-n2nc3c(c2NC(=O)c2ccc4c(c2)OCO4)CSC3)cc1	1.1%	0.0	4.7	-4	10	-16%	-2%
O=C(COC(=O)C1CCN(c2ccc(C(F)(F)F)cn2)CC1)NC1CCCCC1	-1.2%	1.2	.	-26	-3	.	.
COc1ccc(N2CCN(C(=O)Nc3ccc(Cl)cc3)CC2)cc1	0.5%	0.1	.	.	17	-2.7%	.
COc1ccc(-c2cc3c(=O)n(CC(=O)N4CCCC4)ncn3n2)cc1	-0.5%	-0.3	.	-6	-10	-2.3%	8%
CC(C)n1nc(C(=O)OCC(=O)N2CC(=O)Nc3ccccc32)c2ccccc2c1=O	0.8%	3.1	0.6	-8	24	1.4%	11%
C/C(=N\NC(=O)COc1ccccc1[N+](=O)[O-])c1cccc(NC(=O)c2ccncc2)c1	2.2%	-0.1	.	14	1	5.7%	-3%
C=C(C)C1CC=C(C)/C(=N/NC(=O)c2ccc(NC(=O)CC)cc2)C1 (configuration not stated)	-3.3%[38.3 µM]	0.4	-1.5	6	-3	-1.7%	-14%
Cn1c(=O)c2c(nc(CN3CCN(c4ccccc4)CC3)n2Cc2ccccc2Cl)n(C)c1=O	12%[38.3 µM]	0.5	5.9	9	3	0.6%	-26%
CC(=O)C1[C@H](N(C)C)CC2C3CC=C4CC(O)CC[C@]4(C)C3CC[C@@]21C (some centres not stated)	1.2%	0.1	-3.9	-2	1	-1.5%	18%
COc1ccccc1Nc1nc(N)nc(CN2CCC(Cc3ccccc3)CC2)n1	-4.7%	2.0	0.2	?	-5	-2.6%	?
Cc1[nH]c2ccccc2c1C(=O)C(C)OC(=O)c1ccccc1NCCO (configuration not stated)	-3.4%	1.3	.	8	2	4.2%	.

(further entries)
molecule	PINK1 expr mod	TRPML1 ag	Menin MLL FP FL	TRPV1 potentiator	TRPML1 inh	ClpP mod	Sfp inh
COc1ccc(S(=O)(=O)CC(=O)c2cc(C)c(O)c(C)c2)cc1	2.6%	-0.6	2.7	-8	11	-0.9%	4%
O=C(NC1CCCCC1)C1CCCN(S(=O)(=O)c2cccs2)C1 (configuration not stated)	2.2%	-0.7	-0.3	8	0	-2.5%	3%
O=C(CCC(=O)Nc1ccc(F)cc1)N/N=C/c1ccccc1	0.2%	1.5	2.5	-10	23	-0.1%	5%
Cc1ccc(Nc2nc(N)nc(CCl)n2)cc1	-1.5%	0.4	0.2	-17	7	.	8%
CC1(C(=O)Nc2cccc(Oc3ccccc3)c2)CCN1Cc1cccc2c1OCO2 (configuration not stated)	3.8%	0.0	.	.	.	-3.7%	.
COc1ccc(CN(C)S(=O)(=O)c2nnc(NC(=O)c3ccccc3OC)s2)cc1OC	0.6%	0.5	-6.6	11	3	-5.1%	-5%
COc1cccc(NC(=O)COC(=O)CNS(=O)(=O)c2c(F)cccc2F)c1	-1.7%	-0.6	1.9	-14	9	1.6%	-21%
COc1ccc(/C=c2\sc3nc(-c4ccccc4)c(-c4ccccc4)n3c2=O)cc1OC	11%	-0.7	3.6	1	6	-12%	18µM*
O=C(COC(=O)/C=C/c1cccc(F)c1)NC1CC1	-1.3%	-0.2	.	.	24	-1.3%	.
CC(=O)c1ccc(N2CC(C)(C)C2=O)cc1	2.1%	-0.7	1.0	2	35	.	8%
CN1CCN(C(=O)Nc2ccccc2CC[N+](=O)[O-])CC1	-0.9%	-0.5	-10.0	2	-4	.	17%
CC(=O)c1c(C)[nH]c(C(=O)OCC(=O)c2ccc3c(c2)NC(=O)CO3)c1C	6.6%	-1.3	.	.	-16	-0.2%	.
Cc1ccc(C2C=C(c3ccccc3)Nc3nc(N4C(=O)CCC4=O)nn32)cc1 (configuration not stated)	-0.4%	1.5	?	-6	-11	.	-19%
